# Source: PubChem
# FGF22 binding: shifts melting point of recombinant human FGF22; Q9HCT0; recombinant FGF22 thermal shift, SYPRO orange fluorescence; percent of sucrose octasulfate shift, DMSO zero; calls only at 9.99 µM; 340,000 tested, 1.5% active; AID 651658;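 active means melting point raised past a set limit in the mean and every replicate; inconclusive means no clear call; three in four hits are not shown here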
# Target sequence (Q9HCT0 whole entry, looked up): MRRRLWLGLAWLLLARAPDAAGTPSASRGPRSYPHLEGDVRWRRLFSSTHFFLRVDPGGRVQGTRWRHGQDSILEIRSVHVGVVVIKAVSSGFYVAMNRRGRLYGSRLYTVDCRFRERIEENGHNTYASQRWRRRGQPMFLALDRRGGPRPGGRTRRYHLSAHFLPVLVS
# ALR H2O2 inh: human ALR oxidase inhibition via reduced H2O2; P55789; purified ALR, DTT oxidation, H2O2 HRP-luminol luminescence; inhibition, % (test concentration not listed); 290,000 tested, 3.8% active;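 active means mean and each replicate at 75% or more; inconclusive means only one of the two met; inactive means neither met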;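 further: stock transfer was 7.5 nL into about 7.5 µL; 0% = neutral wells and 100% = wells with inactivated enzyme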
# Target sequence (P55789 whole entry, looked up): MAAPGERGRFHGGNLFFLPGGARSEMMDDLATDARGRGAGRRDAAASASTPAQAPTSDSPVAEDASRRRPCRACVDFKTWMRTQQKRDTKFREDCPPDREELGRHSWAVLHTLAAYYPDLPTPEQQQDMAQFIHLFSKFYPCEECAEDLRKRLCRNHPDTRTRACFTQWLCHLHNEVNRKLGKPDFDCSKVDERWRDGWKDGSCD
# Ecoli growth: inhibitors of Escherichia coli growth; OD600, 23 h; active compounds read low; OD600 absorbance (no concentration beside the values); 330,000 tested, 0.21% active;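 active means OD600 absorbance below the run mean of sample wells minus 3.6 SD, in any replicate, cut at about 0.56 in these data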;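 further: stock transfer was 300 nL into about 60 µL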
# rRNA inh HTS: inhibitors of bacterial rRNA selective over humanized ribosomes; E. coli WT GFP vs humanized-ribosome RFP mutants, fluorescence, 24 h; active compounds read low; DMSO median 0, no signal -100; GFP signal change (wild-type ribosome), % (test concentration not listed); 350,000 tested, 1.6% active; AID 720706;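 active means significant combined selectivity score with lowered wild-type GFP, culture density cut under 30%, mutant RFP and density less affected; inactive means any of these conditions unmet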; further: one replicate is shown; some compounds called inactive have numbers as strong as hits
# HNF4A DNA FP: change in binding of human HNF4 alpha to DNA. P41235. HNF4a-FITC DNA binding, fluorescence polarization, 1 h. activity change, % at 10 µM. 360,000 tested, 0.3% active. AID 1224865; in the data active means activity change above about 30%, passing the limit was not always enough;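 further: controls were the assay level and a saturating level of protein; the project sought stronger binding though the title names inhibitors; some compounds called inactive have numbers as strong as hits; positive values seem to mean higher polarization but the record does not say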
# MLL AF4-AF9 inh: MLL-AF4/AF9 protein interaction inhibition. AlphaScreen, biotin-AF4 peptide binding to FLAG-AF9. inhibition, % at 10 µM. 350,000 tested, 0.47% active. AID 651704;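 active means every replicate reaching a set inhibition limit, whatever the replicate mean, cut at about 25% in these data; inconclusive means mean inhibition reaches that limit but some replicates miss it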;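 further: 0% = plate neutral control median and 100% = total signal loss; the record names both 10 and 1 µM as test concentration; the first replicate is given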
# Target sequence (P42568 whole entry, looked up): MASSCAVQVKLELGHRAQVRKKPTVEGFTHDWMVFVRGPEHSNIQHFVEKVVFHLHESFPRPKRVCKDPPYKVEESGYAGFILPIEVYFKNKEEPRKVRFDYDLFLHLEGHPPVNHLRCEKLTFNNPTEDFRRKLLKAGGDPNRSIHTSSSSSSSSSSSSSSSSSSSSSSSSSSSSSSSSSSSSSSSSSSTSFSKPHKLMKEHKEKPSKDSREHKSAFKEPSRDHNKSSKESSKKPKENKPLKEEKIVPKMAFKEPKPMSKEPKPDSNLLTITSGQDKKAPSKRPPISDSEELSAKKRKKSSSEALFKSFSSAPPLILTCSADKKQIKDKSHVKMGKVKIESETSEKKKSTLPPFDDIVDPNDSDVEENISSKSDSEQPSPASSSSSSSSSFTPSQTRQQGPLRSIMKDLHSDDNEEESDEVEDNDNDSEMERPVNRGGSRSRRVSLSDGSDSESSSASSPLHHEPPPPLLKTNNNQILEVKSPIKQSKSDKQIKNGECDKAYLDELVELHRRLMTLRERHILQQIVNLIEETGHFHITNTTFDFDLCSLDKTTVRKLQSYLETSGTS
# Vif TR-FRET: HIV-1 Vif–A3G interaction blockers – biochemical, TR-FRET, GST-Vif 1-94, biotin-A3G peptide, dose response retest, primary screen (AID 1117319); TR-FRET GST-Vif / biotin-A3G peptide binding; higher % means a stronger effect; test concentration not given here; strong numbers were not always called active; one-dose inhibition, %; IC50 in µM for titrated hits; 260,000 tested, 0.57% active;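 active means above the screen mean plus three standard deviations and confirmed in dose response; inconclusive means results disagree or hit not tested in dose response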;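 further: Vif residues 1-94 fused to GST binding biotinylated APOBEC3G peptide 110-148; 0% = full assay without inhibitor and 100% = GST in place of GST-Vif; retest series ran down from 100 µM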
# rRNA inh HTS OD600: further read-out of rRNA inh HTS, marked with its call; OD600 change, %; measured here: OD600 growth;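 optical density of the mix in the first replicate; 0 = DMSO median and -100 = no signal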
# rRNA inh HTS RFP: second read-out of rRNA inh HTS, no call of its own (marks repeat the call); RFP signal change, %; measured here: RFP humanized mutant strains;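 first replicate; 0 = DMSO median and -100 = no signal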
# * = called active by the depositor; i = inactive; ? = inconclusive; nt = not tested or not shown. Some of the compounds tested; the hit share may differ from the screen's.
cpd	structure	rRNA inh HTS OD600	HNF4A DNA FP	Vif TR-FRET	ALR H2O2 inh	rRNA inh HTS	FGF22 binding	MLL AF4-AF9 inh	rRNA inh HTS RFP	Ecoli growth
1	COCCNC(=O)C1(C)CCCN(C(=O)c2ccccc2OC(F)(F)F)C1 (configuration not stated)	18	1.8	nt	nt	9	i	-6.7	2.1	nt
2	CN(C)c1ccnc2sc(C(=O)NCc3ccccc3)c(N)c12	nt	-4.5	21%	6	nt	nt	nt	nt	0.68
3	Cc1ccccc1OCCc1c(C)[nH]c(=S)[nH]c1=O	-5	-3.8	nt	31	-1	i	0.2	-7.5	0.7
4	CCOc1ncccc1C(=O)OCc1ccc([N+](=O)[O-])cc1	-8	-1.7	27%	-9	-7	i	0.1	-7.2	0.65
5	CN1CCN(C(=O)C[C@H]2C[C@H]3c4cc(NS(C)(=O)=O)ccc4O[C@H]3[C@@H](CO)O2)CC1	2	nt	nt	nt	3	i	-0.5	-1.4	nt
6	COc1ccccc1NC(=O)CSc1nnc(CNC(=O)c2ccccc2F)o1	-1	-1.4	nt	-10	3	i	-2.5	-1.7	0.64
7	CC1=C(C(=O)OC(C)C)C(c2cccs2)NC(=S)N1 (configuration not stated)	nt	3.8	-11%	-11	nt	nt	nt	nt	0.73
8	O=C(Nc1ccccc1N1CCCC1)C1CCN(S(=O)(=O)c2ccccc2C(F)(F)F)CC1	2	1.3	-7%	nt	4	i	-21	20	0.71
9	Cn1cnc2cc(NC(=O)c3ccco3)ccc21	3	2.6	?	5	7	i	5.2	0.7	0.69
10	Cc1nc(NC(=O)c2ccccc2)sc1Cc1ccc2c(c1)OCO2	-22	-0.9	10%	4	-22	i	2.9	21	0.72
11	O=C(N/N=C/C=C/c1ccccc1)c1cccnc1	-4	-1.2	-7%	-5	9	i	nt	0.4	nt
12	CC1(C(=O)O)CCCN(C(=O)c2cccnc2Oc2ccccc2)C1 (configuration not stated)	nt	1.2	nt	nt	nt	i	-2.9	nt	nt
13	CC(C)NC(=O)N(C)C[C@@H]1Oc2ncc(C#CC3CC3)cc2C(=O)N([C@H](C)CO)C[C@@H]1C	2	nt	nt	nt	-4	i	-1.2	-3.5	nt
14	O=C(c1ccc2c(c1)C(=O)N(c1ccc(Cl)cc1)C2=O)N1CCN(c2ccccn2)CC1	nt	2.5	1%	2	nt	nt	nt	nt	0.71
15	O=C(Nc1ccc2c(c1)[C@H]1C[C@@H](CC(=O)N3CCc4ccccc4C3)O[C@H](CO)[C@H]1O2)c1ccc2c(c1)OCO2	-13	nt	nt	nt	-6	i	2.0	3.0	nt
16	CSc1ccc(/C=C/C(=O)OCC(=O)NC(C)C)cc1	1	5.6	-3%	-3	2	i	-9.9	-1.4	0.67
17	CCN1CCCC(OC(=O)c2cc(-c3ccc(C)cc3)nc3ccccc23)C1 (configuration not stated)	-7	-1.6	nt	-7	-15	i	15	-3.5	0.63
18	Cc1ccccc1CN(c1ccc(C(=O)Nc2cccnc2)cc1)S(C)(=O)=O	nt	-3.0	2%	-3	nt	nt	nt	nt	0.71
19	CC(C)(C)OC(=O)NCCCCCNC(=O)c1nc[nH]c1C(=O)NCc1ccccc1	-3	-1.5	nt	11	0	i	5.1	19	0.69
20	CCn1cc(C(=O)NC(=S)Nc2cccc(O)c2)cn1	nt	0.0	2%	63	nt	nt	nt	nt	0.71
21	COc1ccc(C(O)c2nc(-c3ccc(C)c(C)c3)cs2)cc1 (configuration not stated)	-52	4.1	nt	nt	-41	i	-2.9	-7.0	nt
22	CN(CC(=O)Nc1cccc(F)c1)C(=O)CC1CCCCC1	6	1.4	4%	nt	1	i	9.3	-0.4	0.63
23	CCCN1[C@@H]2c3ccc(-c4ccccc4OC)c(=O)n3C[C@@H]2[C@@H](CO)[C@@H]1C(=O)Nc1nccs1	-8	nt	nt	nt	-4	i	0.6	-3.3	nt
24	CCOC(=O)c1ccc(NC(=O)NC2CC3CCC(C2)N3Cc2nnnn2Cc2ccco2)cc1 (configuration not stated)	nt	6.0	-6%	-3	nt	nt	nt	nt	0.72
25	COc1ccc(-c2csc(N3CCN(C(=O)c4ccccc4)CC3)n2)cc1	nt	3.4	-3%	6	nt	nt	nt	nt	0.69
26	O=C(Nc1ccc(S(=O)(=O)N2CCCCC2)cc1)c1ccc(F)cc1	-28	5.6	nt	nt	-18	i	-2.1	-1.3	nt
27	Cc1cc(C(=O)OC(C)C(=O)NC2CCCCC2C)c(C)o1 (configuration not stated)	2	3.0	6%	3	4	i	-0.3	-0.9	0.62
28	Cc1oc(S(=O)(=O)N2CCCC2)cc1C(=O)Nc1ccccc1	0	-2.9	9%	-4	-3	i	nt	3.3	0.66
29	COc1cccc(/C=C2\SC(=S)N(CCC(=O)N3CCCCC3CCO)C2=O)c1 (configuration not stated)	-10	2.0	4%	-5	-6	i	-3.5	2.8	0.67
30	Cc1nn(CC#N)c(=O)n1-c1cccc(F)c1	nt	0.2	-5%	3	nt	nt	nt	nt	0.71
31	CC(OC(=O)c1ccc2ncsc2c1)C(=O)NC1CCCCC1C (configuration not stated)	6	0.6	-11%	-3	8	i	-1.3	1.6	0.65
32	CC1CCCN(C(=S)Nc2ccc(S(=O)(=O)N3CCCCC3)cc2)C1 (configuration not stated)	-2	-1.7	nt	-5	-5	i	-0.3	3.7	0.69
33	Cc1sc(NC(=S)NC(=O)c2cccs2)nc1-c1ccc(CC(C)C)cc1	0	-2.3	10%	1	3	i	-0.8	2.2	0.78
34	COc1ccc(Cl)cc1S(=O)(=O)N1CCC(C(=O)NC2CC2)CC1	9	2.2	nt	-5	6	i	-0.2	0.9	0.67
35	Cc1ccnc(SCC(=O)O)n1	nt	0.2	7%	-3	nt	nt	nt	nt	0.72
36	CCC(=O)NNC(=O)CSc1nnc(-c2ccccc2)c(-c2ccccc2)n1	-4	-5.8	nt	40	3	i	0.7	3.8	0.66
37	COc1ccc(-c2csc(NC(=O)CN3C(=O)CCC3=O)n2)cc1OC	9	6.0	nt	17	1	i	0.4	0.9	0.72
38	CCOC(=O)/C(C#N)=N/Nc1c(C)n(C)n(-c2ccccc2)c1=O	-6	6.0	3%	26	0	i	-0.1	-2.4	0.68
39	Cc1nc(NC(=O)/C=C/c2ccccc2)sc1C(=O)Nc1ccc(Cl)cc1	nt	-0.8	-5%	-1	nt	nt	nt	nt	0.7
40	O=C1CCCC(=NNC(=O)c2cc3ccccc3cc2O)C1	nt	129	1%	nt	nt	nt	nt	nt	0.6
41	C[C@@H]1CCCCO[C@@H](CN(C)Cc2ccncc2)[C@H](C)CN([C@H](C)CO)C(=O)c2cc(NS(=O)(=O)c3ccc(Cl)cc3)ccc2O1	-19	nt	nt	nt	-7	i	1.7	8.5	nt
42	O=C(/C=C/c1cc([N+](=O)[O-])ccc1OC(F)F)NCc1ccc(Cl)cc1	nt	-2.7	-3%	nt	nt	nt	nt	nt	0.71
43	CCc1c(C(=O)NC(C)C2CCCO2)csc1C (configuration not stated)	17	1.1	1%	-2	16	i	-0.7	0.0	0.68
44	Cc1cccc(Nc2nc(-c3ccc(F)c(C)c3)cs2)n1	-23	0.6	-3%	-1	-17	i	-6.5	-1.7	0.66
45	COc1ccccc1NS(=O)(=O)c1cccc(C(=O)N2CCN(C(=O)c3ccco3)CC2)c1	1	0.4	6%	-2	-1	i	-4.8	-1.8	0.64
46	CC(=O)Nc1cc(C(=O)c2ccccc2)ccc1N1CCOCC1	nt	-1.8	-1%	-11	nt	nt	nt	nt	0.72
47	CC(C(=O)N1CCN(c2ccccc2)CC1)N1C(=O)C2CC=CCC2C1=O (configuration not stated)	nt	2.0	-1%	51	nt	nt	nt	nt	0.7
48	CO[C@@H]1CN(C)C(=O)c2cc(NC(=O)c3cc(C)on3)ccc2OC[C@@H](C)N(C(=O)C2CC2)C[C@@H]1C	17	nt	nt	nt	4	i	0.4	-4.9	nt
49	O=Nc1onc(-c2ccc([N+](=O)[O-])cc2)c1NO	9	-3.8	6%	nt	4	i	-0.5	-0.7	0.64
50	CO[C@H](CN(C)C(=O)c1cnccn1)[C@@H](C)CN([C@@H](C)CO)S(=O)(=O)c1ccc(Cl)cc1	-10	nt	nt	nt	0	i	0.2	-5.0	nt
51	CC(=O)c1cccc(NC(=O)C2Cc3c(-c4cccc(F)c4)ccnc3O2)c1 (configuration not stated)	-9	2.4	nt	nt	0	i	-0.1	7.8	nt
52	Cc1ccc(N2CCN(S(=O)(=O)c3ccc(C)cc3)CC2)cc1	6	2.2	nt	-2	7	i	-5.7	1.8	0.64
53	CSC(=S)N/N=C/c1ccc(N(C)C)cc1	12	6.8	14%	5	10	i	2.2	2.1	nt
54	C[C@H](CO)N1C[C@H](C)[C@H](CN(C)C(=O)Nc2ccccc2)Oc2ccc(NS(=O)(=O)c3ccc(F)cc3)cc2C1=O	1	nt	nt	nt	-1	i	-0.5	-1.6	nt
55	Cc1ccc(NC(=O)C2CCCN(S(=O)(=O)c3ccc4c(c3)oc(=O)n4C)C2)nc1 (configuration not stated)	-12	1.9	18%	0	-4	i	-3.7	-2.6	0.68
56	COc1ccc(CCN(C(=O)Cn2nnc3ccccc32)C(C(=O)NCC2CCCO2)c2ccncc2)cc1OC (configuration not stated)	7	-2.5	nt	-21	-5	i	1.6	-2.2	0.7
57	CCOC(=O)c1ccc(-c2ccc(/C=C(\C#N)C(=O)NCC3CCCO3)o2)cc1 (configuration not stated)	nt	1.2	-109%	7	nt	nt	nt	nt	nt
58	COc1cccc(NC(=O)N2C[C@H](O)COC[C@H]3O[C@H](CC(=O)NCc4ccccc4F)CC[C@@H]32)c1	-3	nt	nt	nt	-2	i	-0.4	2.6	nt
59	CN(C)CCNC(=O)/C(=C/c1ccc(-c2cccc(Cl)c2)o1)NC(=O)c1ccccc1	nt	0.8	3%	9	nt	nt	nt	nt	0.64
60	C[C@@H]1CCCCO[C@@H](CN(C)CC2CC2)[C@H](C)CN([C@@H](C)CO)C(=O)c2cc(NC(=O)c3ccncc3)ccc2O1	17	nt	nt	nt	4	i	-1.0	-0.2	nt

# Quoted at random: 2 compounds from above
cpd	structure	rRNA inh HTS OD600	HNF4A DNA FP	Vif TR-FRET	ALR H2O2 inh	rRNA inh HTS	FGF22 binding	MLL AF4-AF9 inh	rRNA inh HTS RFP	Ecoli growth
49	O=Nc1onc(-c2ccc([N+](=O)[O-])cc2)c1NO	9	-3.8	6%	nt	4	i	-0.5	-0.7	0.64
53	CSC(=S)N/N=C/c1ccc(N(C)C)cc1	12	6.8	14%	5	10	i	2.2	2.1	nt

# Further structures
cpd	structure	rRNA inh HTS OD600	HNF4A DNA FP	Vif TR-FRET	ALR H2O2 inh	rRNA inh HTS	FGF22 binding	MLL AF4-AF9 inh	rRNA inh HTS RFP	Ecoli growth
61	COc1ccc(C2CC(c3cccs3)=NN2C(=O)CSc2nnnn2C)cc1OC (configuration not stated)	-6	-4.3	nt	-2	-11	i	-1.0	-2.9	0.71
62	CCOc1ccc(N2CC(O)(c3cccs3)[N+]3=C2CCCC3)cc1 (configuration not stated)	-4	6.4	8%	-53	-9	i	2.8	-1.5	0.67
63	O=C(NCCN1C(=O)S/C(=C/c2ccccc2)C1=O)C1CCCN1C(=O)c1cccs1 (configuration not stated)	3	5.6	0%	-9	3	i	4.0	1.6	0.66
64	C[C@H]1CCCCO[C@H](CN(C)C(=O)c2ccccc2)[C@@H](C)CN([C@@H](C)CO)C(=O)c2cc(NS(=O)(=O)c3ccccc3)ccc2O1	-7	nt	nt	nt	-4	i	1.0	-0.9	nt
65	O=C(c1ccccc1F)N1C[C@H]2[C@@H](c3ccccc31)[C@H](CO)N2C(=O)Nc1ccccc1	11	nt	nt	nt	2	i	0.1	1.9	nt
